Compound activity from PubChem BioAssay.
VACV Venus inh = vaccinia inhibition (Venus reporter) | Potency, µM (doses to about 36.5 µM), for the others: at the highest dose activity change, negative = inhibition, hits mostly inhibitors | Vaccinia virus Venus reporter expression, fluorescence | hit rate 0.46% among 330,000; active means well fitted inhibition curve with a large enough effect; inconclusive means small, poorly fitted or top-dose-only effect; inactive means no such curve, though single readings can be large or run the other way; tested in A549 cells; also: nearly all actives have a fitted effect of over 30% in size; inactives centre near -10
VACV mCherry inh = vaccinia inhibition (mCherry reporter); hit rate 0.63% among 310,000; Vaccinia virus mCherry reporter infection, fluorescence; about a quarter of the inactives have no number; Potency, µM (titrated, usually from 36.5 µM), without a hit: at the top dose activity change, negative = inhibition, actives largely listed as inhibitors; AID 720579; active = well fitted inhibition curve with a large enough effect; inconclusive = small, poorly fitted or top-dose-only effect; inactive = no such curve, though single readings can be large or run the other way; tested in A549 cells; also: nearly all actives have a fitted effect of over 35% in size; inactives centre near -10
Active calls of the source: *; i = inactive; ? = inconclusive; . = no result given; [ ] = remark or other dose. % is scaled to controls: 0 for no effect and ±100 for the full control effect; potency is read from the fitted curve at half-maximal effect. No enrichment for hits; any-hit rate near 0.86%.

Each structure is followed by: VACV Venus inh | VACV mCherry inh
> Cc1ccc(C(=O)COC(=O)C(CC(C)C)NC(=O)C2CCC(C)CC2)cc1 (stereo not drawn)
  -5% | -4%
> Cc1cc(=O)[nH]c2ccc([N+](=O)[O-])cc12
  -12% | -10%
> CCOc1ccc(C(=O)/C=C/c2cn(CC(O)CN3CCCCCC3)c3ccccc23)cc1 (stereo not drawn)
  -26% | -18%
> CCOc1cc(NC(=S)NCC(C)C)c(OCC)cc1NC(=O)c1ccco1
  0% | i
> COc1ccc(S(=O)(=O)N2CCCN(S(=O)(=O)c3ccc(OC)c(C)c3)CC2)cc1C
  -24% | -23%
> C[C@@H](C(=O)NNC(=O)c1ccc(Cl)cc1)N1C(=O)C2CC=CCC2C1=O (stereo partly drawn)
  -10% | -7%
> CC(=O)c1cccc(NC(=O)CCc2nc3cccnc3n2Cc2cccs2)c1
  -6% | -10%[7.34 µM]
> CCCCOC(=O)c1ccc(NC(=O)c2cc(Cl)ccc2OC)cc1
  -11% | .
> Cc1c(Cl)cccc1NC(=O)c1ccc2c(c1)CCCN2S(C)(=O)=O
  -10% | -12%
> N#C/C(=C\c1c[nH]c2ccc(Br)cc12)c1ccccn1
  -28% | ?
> CC(=O)c1ccc(N2CCN(S(=O)(=O)c3ccc(-c4cc(C)no4)s3)CC2)cc1
  -10% | -4%
> O=C1CCC(C(=O)OCc2nnc(-c3ccccc3)o2)=NN1
  -2% | -7%
> COc1cc(NC(=O)C2CCCN(S(=O)(=O)c3cccc4nsnc34)C2)cc(OC)c1 (stereo not drawn)
  -23% | -16%
> NC1=NC(c2ccccc2)CC(=O)N1 (stereo not drawn)
  3% | -14%
> CCOC(=O)C1(Cc2cccc(OC)c2)CCN(Cc2cccc(OCC)c2O)CC1
  -12% | -26%
> CCOC(=O)[C@]12CCCC=C1N(Cc1ccccc1)C(=O)[C@H](CC(=O)NCc1ccc(OC)c(OC)c1)C2
  ? | ?
> Cc1[nH]cnc1C(=O)N/N=C/c1ccc([N+](=O)[O-])s1
  ? | -23%
> NC(=S)NNc1c(F)c(F)c(F)c(F)c1F
  3% | -2%
> COc1ccc(C(NC(C)=O)c2cc(Cl)c3cccnc3c2O)cc1OC (stereo not drawn)
  ? | ?
> COc1ccc(C(=O)Nc2ccc(F)cc2F)cc1
  -25% | -9%

(continued)
Each structure is followed by: VACV Venus inh | VACV mCherry inh
> O=C1OCC(c2ccc(Cl)s2)=C1c1ccccc1[N+](=O)[O-]
  -15% | -17%
> Cc1ccc(-n2c(=O)c3c(cnn3C)n(CC(=O)Nc3cccc(Cl)c3)c2=O)cc1
  -6% | 0%
> COc1ccc(C(=O)NC(=S)NNC(=O)CCc2ccccc2)cc1
  -14% | -16%
> Cc1cccc(-n2c(SCC(=O)Nc3ccccc3Cl)nc3n[nH]c(C)c3c2=N)c1
  -26% | -21%
> Cc1cccc(N2CCN(C(=O)c3ccc(NC(=O)c4nsc5ccccc45)cc3)CC2)c1C
  -14%[7.34 µM] | -15%[7.34 µM]
> CCCc1noc2c1/C(=N\O)CC(c1ccccc1)C2 (stereo not drawn)
  -22% | .
> CC(=O)Nc1cccc(-c2ccnc3c2CC(C)(C(=O)NCCc2ccccc2)O3)c1 (stereo not drawn)
  -23% | -10%
> CC[C@@H]1C(c2ccc(F)cc2)=NN(c2ccc(Br)cc2)[C@H]1C(=O)N1CCOC1=O
  ? | -6%
> O=C(O)CNC(=O)CCn1nnc2ccccc2c1=O
  1% | -7%
> C=CCNCCCCOc1cccc(Br)c1
  -16% | -29%
> CCc1nnc(NS(=O)(=O)c2ccc(NC(=S)NC(=O)/C=C/c3cccs3)cc2)s1
  -1% | -7%
> CCOc1ccccc1CNC(=O)C1CCN(S(=O)(=O)c2c(C)noc2/C=C/c2ccccc2F)CC1
  -14%[7.34 µM] | -17%[7.34 µM]
> COCC#Cc1ccc2c(c1)O[C@@H](CN(C)S(=O)(=O)c1cccc(F)c1)[C@@H](C)CN([C@H](C)CO)S2(=O)=O
  -12% | i
> OC(c1ccc(Cl)cc1)c1nnc(-c2ccccc2)o1 (stereo not drawn)
  -17% | -19%
> Cc1cc2c(cc1S(=O)(=O)N1CCC(C)CC1)OCC(=O)N2
  -10% | -1%
> COc1cc2[nH]c(=O)n(CCCCCC(=O)N3CCN(c4ccc(Cl)cc4)CC3)c(=O)c2cc1OC
  -30% | ?
> Cn1cc(SCC(=O)Nc2ccc3c(c2)OCCO3)c2ccccc21
  -3% | -23%
> N/C(=N\OC(=O)Nc1ccccc1)c1ncc([N+](=O)[O-])s1
  ? | ?
> CN1C(=O)CCS(=O)(=O)C1c1ccc(Cl)cc1 (stereo not drawn)
  -10% | -3%
> COc1ccc(Cl)cc1NC(=O)C(C)OC(=O)c1ccc(NS(=O)(=O)c2ccc3[nH]c(=O)[nH]c3c2)cc1 (stereo not drawn)
  0% | -14%

Quoted at random: 3 entries already listed, in no set order.
Each structure is followed by: VACV Venus inh | VACV mCherry inh
> O=C1OCC(c2ccc(Cl)s2)=C1c1ccccc1[N+](=O)[O-]
  -15% | -17%
> CCc1nnc(NS(=O)(=O)c2ccc(NC(=S)NC(=O)/C=C/c3cccs3)cc2)s1
  -1% | -7%
> CCCc1noc2c1/C(=N\O)CC(c1ccccc1)C2 (stereo not drawn)
  -22% | .

Later entries
Each structure is followed by: VACV Venus inh | VACV mCherry inh
> COc1cc(S(=O)(=O)n2nc(C)cc2C)c(OC)cc1Cl
  0% | -9%
> CC(C)c1onc(C(=O)N2CCCCCC2)c1[N+](=O)[O-]
  -12% | -3%
> COc1cc(OC)cc(-c2nnc(SCC(=O)N3CCCc4ccccc43)o2)c1
  -15% | .
> Cc1ccc(NC(=O)c2ccc(CNS(=O)(=O)c3ccc4c(c3)C(C)(C)C(=O)N4C)cc2)cc1
  -2% | -4%
> Cc1ncc(CN2CCCC(C(=O)Nc3ccc(-c4cccc(F)c4)cc3)C2)s1 (stereo not drawn)
  ? | -11%
> CCOC(=O)[C@]12CCC=C1N(Cc1cccc3ccccc13)C(=O)[C@H](CC(=O)NCc1cccs1)C2
  -22% | -10%
> C=CCNC1=C(Cl)C(=O)N(c2ccccc2Cl)C1=O
  -7% | -12%
> O=C(NNC(=O)c1cc2ccccc2cc1O)c1cccs1
  -9% | -14%
> C=CCn1cccc(C(=O)Nc2cc(OC)c(OC)c(OC)c2)c1=O
  -2% | -14%
> CCC1(C)CC(CC(=O)O)(c2ccccc2OC)CCO1 (stereo not drawn)
  -13% | .
> CC1CCN(C(=O)CCc2nnc3ccc(N4CCC5(CC4)OCCO5)nn23)CC1
  -10% | i
> O=C(Nc1ccncc1)Nc1ccc(Br)cc1Cl
  -12% | -1%
> CCc1ccc2oc(C(=O)Nc3cccc(C(F)(F)F)c3)cc(=O)c2c1
  -7% | -6%
> Cc1cc(C)cc(OCc2nnc(SCC(=O)c3ccc(Br)cc3)o2)c1
  ? | .
> Cc1ccc(NC(=O)Cn2c(-c3cncs3)nc3ccccc32)c(Br)c1
  -3% | -1%
> CCn1c(SCc2ccccc2)nnc1-c1cccnc1
  11% | -10%
> COc1ccc(NC(=S)N2CCCCC2c2cccnc2)cc1 (stereo not drawn)
  -14% | i
> CC(C)C(=O)Nc1ccc(N2CCCC2)cc1
  -3% | -14%
> CCCCCSc1nnc(-c2ccccc2NC(C)=O)c(=O)[nH]1
  -8% | -22%
> CCC1(c2ccccc2)C(=O)N(C(=O)OC(C)(C)C)N1C(=O)OC(C)(C)C (stereo not drawn)
  -18% | -18%

Copied from the list.
VACV mCherry inh with `Cc1ccc(NC(=O)Cn2c(-c3cncs3)nc3ccccc32)c(Br)c1` = -1%
VACV mCherry inh with `C=CCn1cccc(C(=O)Nc2cc(OC)c(OC)c(OC)c2)c1=O` = -14%

The list goes on:
| Structure | VACV Venus inh | VACV mCherry inh |
| --- | --- | --- |
| CC(C)(C)n1nnnc1C(c1ccccc1F)N1CCN(C2CCCC2)CC1 (stereo not drawn) | ? | . |
| Cc1ccc(C(=O)NCC(=O)NCCCc2ccccc2)s1 | 0% | i |
| CCOc1ccc2nc(C)cc(Nc3ccc4c(c3)OCCO4)c2c1 | ? | ? |
| FC(F)(F)c1cccc(CC2CN(Cc3ccccc3)Cc3ccccc3N2c2cc(Cl)cc(Cl)c2)c1 (stereo not drawn) | -13% | i |
| S=C(Nc1ccc(Oc2ccc(NC(=S)NC3CCCCC3)cc2)cc1)NC1CCCCC1 | -15% | -20% |
| CCOC(=O)C1CCN(c2nc(-c3ccccc3)nc3c2oc2ccccc23)CC1 | -21% | . |
| COc1ccc(CN2C(=O)c3ccccc3C2C(=O)NCC2CCCO2)c(OC)c1 (stereo not drawn) | 0% | . |
| CCCC(=O)NC(=S)Nc1cccc2c(O)cccc12 | -12% | -19% |
| O=C1NC(c2ccc(O)cc2)Nc2ccccc21 (stereo not drawn) | -14% | -2% |
| CCNC(=S)N(CCN(CC)CC)Cc1cc2cc3c(cc2[nH]c1=O)OCCO3 | -18% | i |
| C=CCc1ccccc1OCC(O)CN1CCOCC1 (stereo not drawn) | -21%[7.34 µM] | 0%[7.34 µM] |
| C=CCOc1ccc2c(CC)cc(=O)oc2c1C | -10% | -17% |
| Cc1ccc(C2/C(=C(/O)c3cnn(-c4ccccc4)c3C)C(=O)C(=O)N2CCN2CCOCC2)o1 (stereo not drawn) | -10% | . |
| Cc1ccc(S(=O)(=O)CCC(=O)OCC(=O)Nc2cc(S(=O)(=O)N3CCOCC3)ccc2Cl)cc1 | -4% | -15% |
| C/C(=N\NC(=O)Cn1ccc(C(F)(F)F)n1)c1ccc2c(c1)OCO2 | -2% | -22% |

(continued)
| Structure | VACV Venus inh | VACV mCherry inh |
| --- | --- | --- |
| CC(=O)NC(CC(=O)NC1CCCc2ccccc21)c1ccccc1 (stereo not drawn) | -11% | -14% |
| CCC(=O)N1CCN(c2ccc(NC(=O)c3ccc(N4CCOCC4)c([N+](=O)[O-])c3)cc2)CC1 | -8% | -9% |
| COc1cc(OC)c(OC)cc1CN1CCCC(C(=O)c2sccc2C)C1 (stereo not drawn) | -19% | ? |
| O=C1NC[C@H](CCCCN2CCN(CCc3ccc(O)cc3)C(=O)C2=O)N(CCC2CCCCC2)C1=O | -1% | -6% |
| COc1cc(C2/C(=C(\O)c3ccc4c(c3)OCCO4)C(=O)C(=O)N2Cc2ccco2)cc(OC)c1OC (stereo not drawn) | -11% | -8% |
| CCC(CCNC(=O)c1ccccc1)(CCNC(=O)c1ccccc1)[N+](=O)[O-] | -20% | -9% |
| Cc1ccc(O)c(NC(=O)CCCC(=O)O)c1 | -10% | -9% |
| COc1ccc(S(=O)(=O)Nc2ccc(F)c(F)c2)cc1C(=O)N1CCOCC1 | -5% | 4% |
| Cc1ccccc1C(=O)N(Cc1nc(-c2ccc(Cl)cc2)no1)C(C)C | -7% | -2% |
| Cc1ccccc1-c1nc2ccccc2c(=O)n1C1CCS(=O)(=O)C1 (stereo not drawn) | -9% | i |
| Brc1ccc(OCCCOc2cccc3cccnc23)cc1 | 5% | -15% |
| Cc1nn(C)cc1/C=N\NC(=O)Cc1ccc([N+](=O)[O-])cc1 | -2% | -1% |
| Cc1ccc(-c2nnc(SCC(=O)N/N=C/c3c(C)nn(-c4ccccc4)c3C)n2-c2ccc(C)cc2)cc1 | -1% | 37%[activator] |
| Cc1cc(C)cc(NC(=O)CSc2nc3c(c(=O)n2C)SC(C)C3)c1 (stereo not drawn) | -20% | -7% |
| CC(=O)c1cccc(NC(=O)Nc2ccc(C(=O)N3CCCC3)cc2)c1 | -11% | i |

Next section
| Structure | VACV Venus inh | VACV mCherry inh |
| --- | --- | --- |
| NC(=O)C1(N2CCCCC2)CCN(C(=O)Nc2ccc(C(F)(F)F)cc2)CC1 | -12% | -14% |
| COC(=O)c1sccc1S(=O)(=O)N1CCC(n2c(CC3CCCC3)nc3cccnc32)CC1 | -5% | -11% |
| CC(=O)c1c(C)[nH]c(C(=O)NCCCN2CCCC2)c1C | -13% | i |
| O=C(NNC(=O)C1CCCN(c2ncccn2)C1)c1ccc(F)cc1 (stereo not drawn) | -4% | i |
| COCCNC(=O)C(=O)N/N=C/c1ccc(C(=O)OC)cc1 | 3% | i |
| O=C(CSc1nc2ccccc2c(=O)n1-c1ccc(SC(F)F)cc1)Nc1ccc(N2CCOCC2)cc1 | -7% | i |
| O=C(CSc1ncccc1C(=O)O)NC12CC3CC(CC(C3)C1)C2 | 1% | 1% |
| CC(=O)c1c(C)nc(-c2ccc(Cl)cc2)nc1N | -2% | -13% |
| Cc1cccc(C2(c3cccc(C)c3)CC2C(=O)NCC2CCCO2)c1 (stereo not drawn) | -12% | -23% |
| N#Cc1cccc(NC(=O)CSc2cccc[n+]2[O-])c1 | 4% | -2% |
| COc1ccc(NC(=O)CSc2nnc3ccc(-c4ccccn4)nn23)cc1OC | -11% | i |
| CCc1ccccc1NC(=O)Nc1cc(C(=O)NCc2ccc(C(C)C)cc2)ccc1N1CCCC1 | ? | ? |
| O=C(CC1Nc2ccccc2NC1=O)Nc1cc(Cl)cc(Cl)c1 (stereo not drawn) | -4% | -18% |
| O=C(COC(=O)C1Cc2ccccc2CN1C(=O)c1ccccc1Cl)Nc1ccc(N2CCOCC2)cc1 (stereo not drawn) | -18% | -4% |
| O=[N+]([O-])c1cc([N+](=O)[O-])c2n[nH]c(-c3ccccc3)c2c1 | -8% | -6% |
| Cc1cccc(-c2nnc(SCC(=O)Nc3cccc(C(=O)N4CCOCC4)c3)n2C)c1 | -18% | i |
| C=CCN(C)NC(=O)Nc1ccccc1 | -15% | -1% |
| COc1ccc(CNc2nc3ccccc3n2C)c(OC)c1 | 0% | -4% |
